# DUX4 txn inh: inhibitors of DUX4-driven ZSCAN4 reporter expression, primary screen, 293T cells, Gaussia and Italica luciferase. 293T-iDUX4 ZSCAN4-Gaussia luciferase reporter, 24 h; stronger effect = lower value. activity change, negative = inhibition, % (no concentration beside the values). 0.8% of 37,000 active;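 active = -10% or lower and over 25 points stronger than a control reporter; inconclusive = -10% or lower with a smaller gap; inactive = above -10%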;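 note: 0% = median of neutral control wells and -100% = median of positive control wells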
# DUX4 txn inh difference: further read-out of DUX4 txn inh, marked with its call; Gaussia minus Italica difference, %; measured here: selective DUX4 reporter inhibition;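 worked out from the two reporters; negative = selective loss of the DUX4 reporter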
# DUX4 txn inh control: also measured in DUX4 txn inh; calls as there; activity change, negative = inhibition, %; measured here: Italica tet-on control reporter;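 0 = neutral control and -100 = positive control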
# * = called active by the depositor; ? = inconclusive; . = not tested or not shown. These rows are one share of the data (hit frequency here may not be typical).
mol	DUX4 txn inh	DUX4 txn inh difference	DUX4 txn inh control
C[C@@H]1CCCCO[C@H](CN(C)S(=O)(=O)c2cn(C)cn2)[C@@H](C)CN([C@H](C)CO)C(=O)c2cc(NC(=O)c3ccncc3)ccc2O1	5	3	1.6
C[C@H]1CN([C@@H](C)CO)C(=O)c2c(c3ccccc3n2C)-c2ccccc2CO[C@H]1CN(C)Cc1ccc(C(F)(F)F)cc1	?	.	.
CCC(=O)N1C[C@@H]2[C@H](c3ccccc31)[C@H](CO)N2Cc1ccccc1Cl	-1	-2	1.6
CS(=O)(=O)N1CC2(C1)[C@H](c1ccccc1)[C@H](CO)N2C(=O)c1ccccc1	12	6	6.5
CCCNC(=O)N1C[C@H](C)[C@H](OC)CN(C)C(=O)c2ccc(NC(=O)CC)cc2OC[C@@H]1C	4	0	3.7
O=C1[C@H](Cc2ccc(C(F)(F)F)cc2)CCn2nncc2COC[C@H]2CCCCN12	-4	-3	-0.2
O=C(c1ccncc1)N1CC[C@@H]2[C@H](CO)Nc3ccc(-c4ccc(F)cc4)cc3[C@@H]21	-9	21	-30
CCCNC(=O)C[C@H]1CC[C@@H]2[C@@H](COc3ccc(NC(=O)NC(C)C)cc3C(=O)N2C)O1	4	5	-1.6
CCS(=O)(=O)N1CCC2(CC1)CN(S(=O)(=O)c1ccc(C)cc1)[C@H](CO)c1[nH]c3cc(OC)ccc3c12	-3	-7	4.8
COc1ccc2c3c(n(C)c2c1)[C@@H](CO)N(C)CC31CN(S(C)(=O)=O)C1	21	8	13
CO[C@H]1CN(C)C(=O)c2ccc(NC(=O)C3CCOCC3)cc2OC[C@@H](C)N(C(=O)c2ccccc2)C[C@H]1C	2	2	0.6
COc1ccccc1NC(=O)N[C@@H]1C=C[C@@H](CC(=O)NCc2ccc(Cl)c(Cl)c2)O[C@@H]1CO	1	-1	2.3
O=C(c1cnccn1)N1CC[C@H]2[C@H](CO)Nc3ccc(C#Cc4cccnc4)cc3[C@H]21	15	0	15
COc1cccc(-c2cnc3c(c2)C(=O)N([C@@H](C)CO)C[C@H](C)[C@H](CN(C)C(=O)Nc2ccccc2F)O3)c1	6	3	3.0
COc1ccc2c3c([nH]c2c1)[C@@H](CO)N(C(=O)C1CCOCC1)CC31CCN(C)CC1	18	11	7.3
C[C@@H]1CN([C@H](C)CO)C(=O)c2cc(NC(=O)Cc3ccccc3)ccc2O[C@@H](C)CCCCO[C@@H]1CN(C)C(=O)CCC(F)(F)F	-2	-3	0.5
O=C1CCCn2cc(nn2)COC[C@H](c2ccccc2)N1	2	4	-1.9
NCC[C@H]1CC[C@@H](NC(=O)Cc2ccncc2)[C@@H](CO)O1	0	-3	3.1
Cc1ccccc1-c1cnc2c(c1)C(=O)N([C@H](C)CO)C[C@@H](C)[C@H](CN(C)C(=O)c1ccncc1)O2	4	3	1.3
O=C(NCC1CC1)[C@@H]1[C@@H](CO)[C@@H]2Cn3c(ccc(-c4ccccc4F)c3=O)[C@H]1N2Cc1cccnc1	-3	-4	0.6

# A few values from the entries so far:
# `CCCNC(=O)N1C[C@H](C)[C@H](OC)CN(C)C(=O)c2ccc(NC(=O)CC)cc2OC[C@@H]1C` @ DUX4 txn inh difference: 0
# `O=C(c1cnccn1)N1CC[C@H]2[C@H](CO)Nc3ccc(C#Cc4cccnc4)cc3[C@H]21` @ DUX4 txn inh difference: 0
# `CS(=O)(=O)N1CC2(C1)[C@H](c1ccccc1)[C@H](CO)N2C(=O)c1ccccc1` @ DUX4 txn inh: 12
# `Cc1ccccc1-c1cnc2c(c1)C(=O)N([C@H](C)CO)C[C@@H](C)[C@H](CN(C)C(=O)c1ccncc1)O2` @ DUX4 txn inh difference: 3

# (further entries)
mol	DUX4 txn inh	DUX4 txn inh difference	DUX4 txn inh control
COc1ccc2c3c([nH]c2c1)[C@@H](CO)N(C(=O)c1cccc(F)c1)CC31CCN(C(C)=O)CC1	10	0	10
CC(C)C[C@@H]1COCc2cn(nn2)CCCC(=O)N1	1	2	-1.2
C[C@@H]1CN([C@H](C)CO)C(=O)c2cc(C#CC(C)(C)O)cnc2O[C@@H]1CN(C)C(=O)C1CCOCC1	3	1	2.3
C[C@@H]1CN([C@H](C)CO)S(=O)(=O)c2ccc(C#Cc3ccccc3)cc2O[C@H]1CN(C)C	5	0	5.5
O=C(C[C@H]1CC[C@H]2[C@@H](COC[C@H](O)CN2C(=O)Cc2ccccc2)O1)NC1Cc2ccccc2C1	1	4	-3.0
COCC(=O)N1C[C@@H]2[C@H](c3ccccc31)[C@@H](CO)N2Cc1ccccc1Cl	2	3	-1.6
CC(=O)Nc1ccc2c(c1)C(=O)N(C)[C@H]1CC[C@@H](CC(=O)NCc3ccc(Cl)cc3)O[C@H]1CO2	2	0	2.2
CN1C(=O)c2cc(NC(=O)C3CCOCC3)ccc2OC[C@@H]2O[C@H](CC(=O)NCCc3ccncc3)CC[C@H]21	-1	-1	0.6
Cc1noc(C)c1S(=O)(=O)Nc1ccc2c(c1)C(=O)N([C@H](C)CO)C[C@H](C)[C@H](CN(C)Cc1ccc(C(=O)Nc3ccccc3N)cc1)O2	0	5	-5.0
C[C@@H](O)C#Cc1cnc2c(c1)C(=O)N([C@@H](C)CO)C[C@H](C)[C@H](CN(C)C(=O)c1ccccc1F)O2	0	2	-1.5
C/C=C/c1ccc([C@H]2[C@@H](CO)N3C(=O)CN(Cc4ccccc4)C[C@H]23)cc1	3	-1	3.8
CCNC(=O)[C@H]1[C@H](CO)[C@H]2Cn3c(cccc3=O)[C@@H]1N2CCC(F)(F)F	-1	3	-3.8
OC[C@@H]1[C@H](c2ccccc2)C2(CN(Cc3cccnc3)C2)N1Cc1ccncc1	10	10	0.0
CC(C)NC(=O)N(C)C[C@@H]1Oc2ccc(NS(=O)(=O)c3ccc(F)cc3)cc2CC(=O)N([C@@H](C)CO)C[C@@H]1C	2	5	-3.4
CN(C)C(=O)c1ccc(-c2ccccc2[C@H]2[C@@H](C#N)N(C(=O)C3CCC3)[C@@H]2CO)cc1	5	-4	9.2
N#C[C@@H]1[C@@H](c2ccccc2-c2cccc(F)c2)[C@H](CO)N1C(=O)C1CCC1	8	9	-0.6
COc1ccc(C(=O)N2C[C@H]3[C@@H](c4ccccc42)[C@H](CO)N3Cc2ccccc2)cc1	3	3	-0.4
C[C@H](CO)N1C[C@H](C)[C@@H](CN(C)C(=O)Nc2cccc3ccccc23)OCCCC[C@H](C)Oc2ccc(NC(=O)CCC(F)(F)F)cc2C1=O	-2	-4	1.6
O=C(c1cccnc1)N1CC(=O)N2[C@@H](CO)[C@@H](c3ccc(C#CCC4CCCC4)cc3)[C@@H]2C1	-1	3	-4.5
C[C@@H]1CN([C@H](C)CO)C(=O)c2c(c3ccccc3n2C)-c2ccccc2CO[C@@H]1CN(C)C(=O)CCC(F)(F)F	1	6	-5.5

# Molecules listed so far that contain an NH in an aromatic ring:
mol	DUX4 txn inh	DUX4 txn inh difference	DUX4 txn inh control
CCS(=O)(=O)N1CCC2(CC1)CN(S(=O)(=O)c1ccc(C)cc1)[C@H](CO)c1[nH]c3cc(OC)ccc3c12	-3	-7	4.8
COc1ccc2c3c([nH]c2c1)[C@@H](CO)N(C(=O)C1CCOCC1)CC31CCN(C)CC1	18	11	7.3
COc1ccc2c3c([nH]c2c1)[C@@H](CO)N(C(=O)c1cccc(F)c1)CC31CCN(C(C)=O)CC1	10	0	10

# (next part)
mol	DUX4 txn inh	DUX4 txn inh difference	DUX4 txn inh control
C[C@H]1CN([C@@H](C)CO)C(=O)c2cc(/C=C/c3ccccc3)cnc2O[C@H]1CN(C)C(=O)c1ccc2c(c1)OCO2	6	-1	6.4
O=C(NC1CCCCC1)[C@H]1[C@H](CO)[C@H]2Cn3c(cccc3=O)[C@H]2N1CC1CCCCC1	6	20	-14
C[C@@H]1CN([C@@H](C)CO)S(=O)(=O)c2ccc(-c3ccncc3)cc2O[C@H]1CN(C)C(=O)Nc1ccc(F)cc1	2	-3	4.6
COc1cccc(C#Cc2ccc([C@@H]3[C@@H](CO)N4C(=O)CN(C(=O)C5CC5)C[C@H]34)cc2)c1	-1	-4	2.2
C[C@H](CO)N1C[C@H](C)[C@@H](CN(C)S(=O)(=O)c2ccccc2C#N)OCc2cn(nn2)CCCC1=O	2	0	1.9
C[C@@H]1CN([C@H](C)CO)C(=O)c2cc(NC(=O)c3ccncc3)ccc2O[C@@H](C)CCCCO[C@H]1CN(C)S(=O)(=O)c1cn(C)cn1	1	-2	3.5
CN1C(=O)c2cc(NC(=O)c3ccc(F)c(F)c3)ccc2OC[C@@H]2O[C@H](CC(=O)N[C@H]3CCN(Cc4ccccc4)C3)CC[C@H]21	-2	3	-4.4
CO[C@@H]1CN(C)C(=O)c2cc(NC(=O)NC(C)C)ccc2OC[C@@H](C)N(C(=O)CN(C)C)C[C@@H]1C	5	-8	13
N#C[C@@H]1[C@@H](c2ccc(C3=CCCC3)cc2)[C@H](CO)N1C(=O)c1cccc(F)c1	1	-2	2.9
C/C=C/c1ccc2c(c1)O[C@@H](CN(C)C(=O)Cc1cccnc1)[C@H](C)CN([C@H](C)CO)S2(=O)=O	-5	-4	-0.3
Cn1cnc(CCNC(=O)C[C@H]2CC[C@@H]3[C@H](COC[C@H](O)CN3C(=O)Nc3ccccc3)O2)c1	15	14	0.3
COc1cccc(C#Cc2ccc([C@@H]3[C@H](C#N)N(C(=O)C4CCC4)[C@H]3CO)cc2)c1	2	2	-0.2
COc1ccc(S(=O)(=O)N(C)C[C@@H]2Oc3ccc(NC(=O)Nc4ccc(C(F)(F)F)cc4)cc3C(=O)N([C@@H](C)CO)C[C@@H]2C)cc1	-5	2	-7.3
CO[C@H]1CN(C)C(=O)c2ccc(NC(=O)C3CCOCC3)cc2OC[C@@H](C)N(C)C[C@H]1C	-6	-5	-0.8
C[C@H](CO)N1C[C@H](C)[C@H](CN(C)Cc2ccc(C(=O)Nc3ccccc3N)cc2)Oc2ccc(NC(=O)NC3CCCCC3)cc2C1=O	1	6	-4.9
O=C(C[C@@H]1C[C@@H]2c3cc(NC(=O)C4CCOCC4)ccc3O[C@@H]2[C@H](CO)O1)NCc1cc(F)ccc1F	11	12	-0.8
C[C@@H]1CN([C@@H](C)CO)C(=O)c2cccc(NC(=O)c3ccc(-c4nccs4)cc3)c2O[C@@H]1CN(C)C(=O)Nc1ccc(C(F)(F)F)cc1	1	2	-0.9
C/C=C/c1ccc([C@@H]2[C@@H](CNC(=O)C3CC3)N(C(=O)CC)[C@H]2CO)cc1	1	1	0.1
COc1cccc(S(=O)(=O)Nc2ccc3c(c2)[C@@H]2C[C@H](CC(=O)N4CCCCC4)O[C@H](CO)[C@@H]2O3)c1	5	3	2.1
CCNC(=O)Nc1ccc2c(c1)C(=O)N(C)[C@@H]1CC[C@H](CC(=O)NCCOC)O[C@H]1CO2	2	-5	7.3
COc1ccc(NC(=O)N(C)C[C@H]2OCc3ccccc3-c3c(n(C)c4ccccc34)C(=O)N([C@@H](C)CO)C[C@@H]2C)c(OC)c1	-7	-15	7.1
COc1ccc(CN2[C@@H]3CN(C(=O)CC(F)(F)F)c4ccccc4[C@@H]3[C@@H]2CO)cc1	-1	5	-5.5
C[C@H](CO)N1C[C@H](C)[C@H](CN(C)C(=O)Nc2ccc3c(c2)OCO3)OCc2ccccc2-c2ccccc2C1=O	18	25	-7.3
CO[C@H]1CN(C)C(=O)c2cc(NC(=O)CC(F)(F)F)ccc2OC[C@H](C)N(CC2CC2)C[C@H]1C	-1	-10	8.7
O=C(c1cccc(F)c1)N1C[C@@H]2[C@H](c3ccccc31)[C@H](CO)N2C(=O)C1CCCCC1	0	2	-1.4
CO[C@@H]1CN(C)C(=O)c2cc(NC(=O)NC(C)C)ccc2OC[C@@H](C)N(Cc2ccccc2)C[C@@H]1C	-2	0	-2.5
C[C@@H]1CN([C@@H](C)CO)C(=O)CCCn2nncc2CO[C@@H]1CN(C)C(=O)Nc1ccc(-c2cccs2)cc1	4	8	-4.3
COc1cccc(-c2ccc3n(c2=O)C[C@@H]2[C@@H](CO)[C@H](C(=O)NC4CCCC4)N[C@H]32)c1	-1	3	-4.4
C[C@@H]1CN([C@H](C)CO)C(=O)CCCn2nncc2CO[C@@H]1CN(C)Cc1ccc2cccnc2c1	1	2	-0.7
O=C(C1CCOCC1)N1C[C@H]2[C@@H](c3ccccc31)[C@H](CO)N2C(=O)Nc1ccccc1F	3	-1	4.0
C[C@@H]1COCn2nncc2CC[C@H](Cc2ccc(-c3ccccc3)cc2)C(=O)N1	-2	-4	1.5
Cc1noc(C)c1NC(=O)Nc1ccc2c(c1)C(=O)N([C@@H](C)CO)C[C@H](C)[C@@H](CN(C)C(=O)Nc1cccc3ccccc13)O2	5	4	0.6
CCS(=O)(=O)NCC[C@H]1CC[C@@H](NC(=O)Nc2cc(Cl)cc(Cl)c2)[C@@H](CO)O1	0	2	-1.5
CO[C@@H]1CN(C)C(=O)c2ccc(NC(=O)c3cc(C)on3)cc2OC[C@H](C)N(CC2CC2)C[C@H]1C	3	-5	7.3
COc1ccc(-c2ccc([C@@H]3[C@@H](CO)N4C(=O)CN(C(=O)c5ccccc5)C[C@H]34)cc2)cc1	9	9	-0.8
CN1C(=O)c2cc(NC(=O)Cc3cccs3)ccc2OC[C@@H]2O[C@@H](CC(=O)NCC3CCCCC3)CC[C@H]21	1	1	0.6
OC[C@H]1[C@@H](c2ccc(-c3ccc(F)cc3)cc2)[C@@H]2CN(Cc3ccncc3)CCCCN12	?	.	.
O=C(c1cccc(F)c1)N1CCCCN2[C@H](CO)[C@@H](c3ccc(-c4ccccc4)cc3)[C@@H]2C1	?	.	.
O=C(c1ccc2c(c1)OCO2)N1C[C@H]2[C@@H](c3ccccc31)[C@@H](CO)N2C(=O)CC1CC1	0	2	-2.6
O=C(O)C[C@H]1C[C@@H]2c3cc(NS(=O)(=O)c4ccc(F)cc4)ccc3O[C@@H]2[C@H](CO)O1	2	-5	7.5

# From PubChem BioAssay
